VACV mCherry inh: qHTS for Stage-Specific Inhibitors of Vaccinia Orthopoxvirus: mCherry Reporter Primary qHTS; Vaccinia virus mCherry reporter infection, fluorescence; about a quarter of the inactives have no number; Potency, µM (highest dose often 36.5 µM), for inactives: at the highest dose activity change, negative = inhibition, hits mostly inhibitors; 310,000 tested, 0.63% active; AID 720579, 2013; active = well fitted inhibition curve with a large enough effect; inconclusive = small, poorly fitted or top-dose-only effect; inactive = no such curve, though single readings can be large or run the other way; tested in A549 cells; also: nearly all actives have a fitted effect of over 35% in size; inactives centre near -10
Vaccinia Venus: qHTS for Stage-Specific Inhibitors of Vaccinia Orthopoxvirus: Venus Reporter Primary qHTS; 330,000 tested, 0.46% active; Vaccinia virus Venus reporter expression, fluorescence; Potency, µM (titrated, usually from 36.5 µM), for inactives: at the top dose activity change, negative = inhibition, actives largely listed as inhibitors; active means well fitted inhibition curve with a large enough effect; inconclusive means small, poorly fitted or top-dose-only effect; inactive means no such curve, though single readings can be large or run the other way; tested in A549 cells; also: nearly all actives have a fitted effect of over 30% in size; inactives centre near -10
Numbers without * were called inactive; i = inactive; ? = inconclusive; / = not tested or not shown; & = joins results of further samples; [ ] = remark or other dose. % is scaled to controls: 0 for no effect and ±100 for the full control effect; potency is read from the fitted curve at half-maximal effect. No enrichment for hits (roughly 0.86% active in at least one column).

SMILES	VACV mCherry inh	Vaccinia Venus
O=C(CSc1nc(-c2ccccc2)cc(C(F)(F)F)n1)NCc1cccs1	-9%	-10%
CC(C)NS(=O)(=O)c1ccc(OCC(=O)N2CCN(Cc3ccccc3)CC2)c(Cl)c1	/	?
CN(C(=O)COC(=O)c1ccccc1Nc1ccccc1)c1c(N)n(Cc2ccccc2)c(=O)[nH]c1=O	-25%	-25%
COc1ccc(NC(=O)COC(=O)Cc2ccc(-c3ccccc3)cc2)c(OC)c1	-12%	-3%
CSc1sc(-c2ccnc(SCCS(C)(=O)=O)n2)c(-c2ccccc2)c1C#N	-14%	-9%
COc1ccccc1S(=O)(=O)N(C)C[C@@H]1OCc2cnnn2CCCC(=O)N([C@H](C)CO)C[C@@H]1C	-8%	-9%
Cc1cc(NC(=O)COC(=O)[C@H](Cc2ccccc2)NC(=O)c2ccco2)no1	i	-14%
CCN(CC)S(=O)(=O)c1cccc(C(=O)Nc2ccccc2C(=O)N2CCOCC2)c1	-29%[1.46 µM]	-8%
CCOC(=O)CC(NC(=O)c1cccc2c1C(=O)N(Cc1cccnc1)C2)c1ccc(OC(C)C)cc1 (stereo not drawn)	i	-11%
O=C(c1cccs1)N1CCN(Cc2nc3ccccc3c(=O)[nH]2)CC1	i	-9%
COCCCNc1ncnc2c1cnn2-c1ccc(F)cc1	-24%[7.34 µM]	-19%[7.34 µM]
FC(F)(F)c1cccc(Cc2noc(CN3CCCC3)n2)c1	i	-1%
O=C1/C(=C\c2ccco2)CCC/C1=C\c1ccco1	-7%	13%
COc1cccc(-c2ccc(NC(=O)C3CCCN(Cc4cc(C)[nH]n4)C3)cc2)c1 (stereo not drawn)	?	-20%
Cn1cccc1C(=O)NNC(=O)COc1ccccc1F	i	9%
CCOc1ccc(NC(=O)Nc2cc(OCC(F)(F)F)cc(OCC(F)(F)F)c2)cc1	i	-23%
Cc1cccc(CC(C)NC(=O)c2oc3c(F)cccc3c2C)n1 (stereo not drawn)	-12%	-13%
COc1ccc(C2CC(c3ccccc3Br)=NN2c2ccc(S(N)(=O)=O)cc2)cc1 (stereo not drawn)	?	?
Cc1cccc(OCC(=O)NNC(=O)c2cccs2)c1	i	-10%
COc1ccc(NC(=O)c2cc(C3CCCCN3C(=O)c3ccc(Cl)cc3)on2)c(C)c1 (stereo not drawn)	17%	-14%
C=CCN1C(=O)/C(=C\c2ccco2)C(C(=O)OC)=C1C	-25%	-5%
NS(=O)(=O)c1ccc(NC(=S)Nc2ccn(Cc3cccc4ccccc34)n2)cc1	-26%	-30%
CC(C)c1nc(N2CCN(C(=O)c3ccccc3)CC2)c(C#N)c2c1COC(C)(C)C2	-3%	-2%
Cc1ccc(NC(=O)C2CCCN(S(=O)(=O)c3cccc4cccnc34)C2)c(C)c1 (stereo not drawn)	-7%	-4%
COc1cccc(-n2c(/C=C/c3ccc(O)c(O)c3)nc3ccccc3c2=O)c1	?	396%[activator]
O=C(COc1ccc2ccccc2c1)N1CCN(Cc2ccncc2)CC1	-10%	-6%
COc1cccc(NC(=O)c2sc3nc(C)c(C(=O)Nc4ccc(C)cc4C)c(-c4ccc(Br)cc4)c3c2N)c1	10%	-5%
CCOc1ccc(-n2ccc(=O)c(C(=O)O)n2)cc1	-21%	-14%
C/C(=N\NC(=O)COc1ccc(C(C)(C)C)cc1)c1cc2ccccc2o1	i	-10%
O=C1c2ccccc2C(=O)N1CC(O)COCc1ccccc1 (stereo not drawn)	-1%	-9%

Another view of some results above:
molecule,VACV mCherry inh,Vaccinia Venus
CCOC(=O)CC(NC(=O)c1cccc2c1C(=O)N(Cc1cccnc1)C2)c1ccc(OC(C)C)cc1 (stereo not drawn),i,-11%
O=C(c1cccs1)N1CCN(Cc2nc3ccccc3c(=O)[nH]2)CC1,i,-9%
COCCCNc1ncnc2c1cnn2-c1ccc(F)cc1,-24%[7.34 µM],-19%[7.34 µM]
FC(F)(F)c1cccc(Cc2noc(CN3CCCC3)n2)c1,i,-1%
O=C1/C(=C\c2ccco2)CCC/C1=C\c1ccco1,-7%,13%
COc1cccc(-c2ccc(NC(=O)C3CCCN(Cc4cc(C)[nH]n4)C3)cc2)c1 (stereo not drawn),?,-20%
Cn1cccc1C(=O)NNC(=O)COc1ccccc1F,i,9%
CCOc1ccc(NC(=O)Nc2cc(OCC(F)(F)F)cc(OCC(F)(F)F)c2)cc1,i,-23%
Cc1cccc(CC(C)NC(=O)c2oc3c(F)cccc3c2C)n1 (stereo not drawn),-12%,-13%
COc1ccc(C2CC(c3ccccc3Br)=NN2c2ccc(S(N)(=O)=O)cc2)cc1 (stereo not drawn),?,?
Cc1cccc(OCC(=O)NNC(=O)c2cccs2)c1,i,-10%
COc1ccc(NC(=O)c2cc(C3CCCCN3C(=O)c3ccc(Cl)cc3)on2)c(C)c1 (stereo not drawn),17%,-14%
C=CCN1C(=O)/C(=C\c2ccco2)C(C(=O)OC)=C1C,-25%,-5%
NS(=O)(=O)c1ccc(NC(=S)Nc2ccn(Cc3cccc4ccccc34)n2)cc1,-26%,-30%
CC(C)c1nc(N2CCN(C(=O)c3ccccc3)CC2)c(C#N)c2c1COC(C)(C)C2,-3%,-2%
Cc1ccc(NC(=O)C2CCCN(S(=O)(=O)c3cccc4cccnc34)C2)c(C)c1 (stereo not drawn),-7%,-4%
COc1cccc(-n2c(/C=C/c3ccc(O)c(O)c3)nc3ccccc3c2=O)c1,?,396%[activator]
O=C(COc1ccc2ccccc2c1)N1CCN(Cc2ccncc2)CC1,-10%,-6%
COc1cccc(NC(=O)c2sc3nc(C)c(C(=O)Nc4ccc(C)cc4C)c(-c4ccc(Br)cc4)c3c2N)c1,10%,-5%

(cont.)
SMILES	VACV mCherry inh	Vaccinia Venus
C=CCn1c(CCNC(=O)c2ccco2)nc2ccccc21	i	-13%
CN(CC(=O)Nc1ccc(Cl)cc1)C(=O)CNC(=O)c1ccc2c(c1)OCO2	-4%	-18%
CCCCCCCC(=O)O	-6%	1%
O=C(Nc1ccccc1)c1ccc(Br)c(S(=O)(=O)Nc2cccnc2)c1	-10%	-2%
CCOc1ccccc1-c1noc(CCCC(=O)NC2CCCCC2)n1	-15%	-5%
COc1ccccc1N1CCN(C(=O)CCS(=O)(=O)c2ccc3c(c2)oc(=O)n3C)CC1	-3%	0%&-7%
COc1ccc(-c2cc(C(=O)N3CCN(Cc4ccccc4)CC3)no2)cc1OC	-1%	-16%
CN(C)C(=O)Oc1ccc([N+](=O)[O-])cc1	i	-1%
O=C(NCc1ccccc1)c1c[nH]c2ccc(S(=O)(=O)Nc3ccc4c(c3)OCCO4)cc2c1=O	/	-3%
CC1(C(=O)NS(=O)(=O)c2cccc(C#N)c2)CCN1C(=O)CC1CC1 (stereo not drawn)	8%	1%
Cc1ccc(NC(=O)COC(=O)c2ccc(C)c(S(=O)(=O)N3CCOCC3)c2)cc1	i	-14%
CCOC(=O)c1c(-c2ccc(F)cc2)csc1NC(=O)C1CC=CCC1C(=O)O (stereo not drawn)	i	-17%
C[C@@H]1CN(Cc2ccc3c(c2)CN(Cc2coc4ccccc4c2=O)CCO3)C[C@H](C)O1	-18%	-19%
CCC(C)CCN1C(Nc2ccccc2)=NC[C@@H]1Cc1ccccc1 (stereo partly drawn)	-9%	-7%
Cc1ccc(C(=O)O)cc1NC(=O)CSc1ncnc2sc3c(c12)CCC3	i	-9%
O=C(NCc1ccc(Cl)cc1)C(=O)NCC1OCCN1S(=O)(=O)c1cc(F)ccc1F (stereo not drawn)	-1%	-18%
O=C(Nc1nncs1)c1ccccc1NS(=O)(=O)c1cccs1	/	-12%
CC(=O)OCCn1c(=O)c2cc3c(=O)n(CCOC(C)=O)c(=O)c3cc2c1=O	-4%	-7%
CCOc1ccccc1Nc1nnc(SCC(=O)Nc2cccc(S(=O)(=O)NC3=NCCCCC3)c2)s1	-23%	-11%
CC(C)=CCN1CCN(Cc2ccc(C#CC(C)(C)O)s2)CC1CCO (stereo not drawn)	i	-6%
c1ccc2c(C(c3nnnn3-c3ccc4c(c3)OCCO4)N3CCCCC3)ccnc2c1 (stereo not drawn)	-20%	-3%
CCCCn1nc(NC(=O)CCC)c2cc3cc(OC)ccc3nc21	-8%	1%
COc1ccc(-c2cn3nc(N4CCCC(C(=O)Nc5ccc(C)c(C)c5)C4)sc3n2)cc1 (stereo not drawn)	-12%	-13%
CCOC(=O)C1CCN(C(c2cc(OC)c(OC)c(OC)c2)c2sc3nc(C)nn3c2O)CC1 (stereo not drawn)	-7%	-8%
O=C(/C=C/c1ccc([N+](=O)[O-])cc1)OCC(=O)N1CCCC1	?	?
O=C1NCN(c2ccccc2)C12CCN(C(c1cccc3ccccc13)c1nnnn1C1CCCCC1)CC2 (stereo not drawn)	6%	-11%
O=C(Nc1ccnn1C1CCN(C(=O)c2ccc(F)cc2)CC1)C1CCOC1 (stereo not drawn)	-14%	-10%
Cc1nc2ccccc2n1S(=O)(=O)c1ccc(Br)cc1	i	0%
COc1ccccc1N1CCN(CC(=O)N(CC(C)C)c2c(N)n(CC(C)C)c(=O)[nH]c2=O)CC1	5%	6%
CCN(C(=O)COC(=O)Cc1c[nH]c2ccccc12)C1CCS(=O)(=O)C1 (stereo not drawn)	-3%	-8%
Cn1c(-c2ccsc2)c(-c2cccs2)c2cc(-c3cccc4[nH]ccc34)ccc21	-19%	-13%
O=C1CCC(=O)N1CNc1ccccn1	/	-17%
CCOC(=O)c1c[nH]n(-c2ccccc2)c1=O	i	17%
Cc1c(Cl)cccc1NC(=O)CCS(=O)(=O)c1cccc2nonc12	0%	1%
c1ccc2n[nH]nc2c1	-14%	-3%
CN(C)S(=O)(=O)c1ccc(C(=O)OCCc2ccccc2)cc1	-12%	2%
Cc1ccc(OCC(=O)N2CCCC(CCC(=O)N(C)CCc3ccccn3)C2)cc1 (stereo not drawn)	-4%	-15%
O=C(O)c1nc(N2CCOCC2)nc(N2CCOCC2)n1	i	-6%
Cc1ccc(NC(=O)CC2S/C(=N/c3nccs3)N(C)C2=O)cc1C (stereo not drawn)	-3%	-20%
COc1cc(O)c2c(=O)cc(C)oc2c1CC=C(C)C	-1%	-28%
CC1=NN(Cc2c[nH]c3ccccc23)C(C)(C)C1	-29%	-15%
CN(CC(=O)Nc1cccc(F)c1)C(=O)c1cc([N+](=O)[O-])ccc1N1CCCCC1	-15%	-6%
Cc1ccc(NS(=O)(=O)c2c(C)nc3sccn3c2=O)cc1C	-28%	-26%
Cc1ccc(S(=O)(=O)N2CCN(Cc3ccccc3)CC2)c(C)c1NS(C)(=O)=O	-6%	0%
COc1ccccc1-n1cc(CN2CCc3onc(-c4ccc(Br)cc4)c3C2=O)nn1	-28%	-19%
CC1(C(=O)O)NCCc2cc(O)c(O)cc21 (stereo not drawn)	-12%	-9%
COc1ccc(-c2noc(CSc3nnc(-c4ccc(Cl)cc4)n3C)n2)cc1OC	-14%	-7%
Cc1ccc(N(CC(=O)NCC2CCCO2)C(=O)CNS(=O)(=O)c2ccc(Cl)cc2)cc1 (stereo not drawn)	-23%	-3%
Cc1ccccc1-c1c(C)oc2cc(O)ccc2c1=O	-35%	-21%
C=CCn1c(O)c(C(C)=O)c(=O)[nH]c1=O (tested in a mixture with another compound)	-11%	-14%
Cc1cc(O)c(-c2ccnc3cc(-c4ccccc4)nn23)cc1Cl	-5%	-8%
CC(Oc1cc(Cl)ccc1Cl)C(=O)N/N=C\c1ccnn1C (stereo not drawn)	-16%	-9%
O=C(Nc1ccc2c(c1)OCO2)c1ccc(=O)[nH]n1	-26%	-5%
O=C(Cn1nc(-c2ccc(Cl)cc2)ccc1=O)NCCCN1CCN(Cc2ccccc2)CC1	?	-28%
CC(C)N1CC(O)=C(c2ccccc2)C1=N	-5%	-8%
CCOC(=O)C1=C(c2ccccc2)NC(SC)=C(C#N)C1c1ccco1 (stereo not drawn)	i	-13%
CC(Sc1cccc[n+]1[O-])C(=O)Nc1ccc([N+](=O)[O-])cc1Cl (stereo not drawn)	-4%	-7%
COc1cc(OC)c(NC(=O)CCNS(=O)(=O)c2cc(Br)cnc2N)cc1Cl	/	-26%
COc1cccc(/C=N/NC(=O)C(=O)NCc2ccco2)c1O	-15%	-24%
CNC(=O)C12CC3CC(CC(Cl)(C3)C1)C2	-12%	-13%

Later entries
SMILES	VACV mCherry inh	Vaccinia Venus
O=C(CSc1ncccn1)NN=C1CCCCCC1	i	-14%
Cc1ccc2[nH]c3c(=O)n(CC(=O)N(CCN(C)C)Cc4ccccc4)ncc3c2c1	-12%	-14%
Cn1c(=S)[nH]c(=O)c2ncc(=O)[nH]c21	i	1%
OCCOCCOc1cccc2[nH]ccc12	-14%	-9%
CCOc1ccc(CN=C(N)N=C(N)N)cc1Cl	/	?
CC(C)OC(=O)c1cccnc1SCC(=O)Nc1ccc(C(F)(F)F)cc1Cl	-16%	-18%
O=C1N=C(N2CCN(c3ccccc3)CC2)S/C1=C/c1cccs1	i	8%
Cc1ccc2c(=O)c(C(=O)c3ccccc3)cn(CC(=O)Nc3ccccc3)c2n1	-13%	-3%
O=C(CNS(=O)(=O)c1cccs1)N1CCCCC1	-4%	5%
O=C(NCCOc1ccccc1)C(c1ccccc1)c1ccccc1	-16%	-7%
COc1ccccc1NC(=O)NC(=O)c1ccccc1	-12%	0%
CCc1nc(N)c(C#N)c(-c2cccc3ccccc23)c1C	-2%	-21%
O=C(C(=O)N1CCc2ccccc2C1)c1cn(CC(=O)N2CCOCC2)c2ccccc12	i	-5%
CC(C)COC(=O)C1C(=O)CC(C)(O)C(C(=O)OCC(C)C)C1c1cccnc1 (stereo not drawn)	-4%	-11%
COCCCn1c(SCC(=O)N2CCOCC2)nnc1-c1ccco1	-19%	-10%

Source: PubChem
